Source: PubChem (National Center for Advancing Translational Sciences (NCATS))
HSD17B inh: qHTS Assay for Inhibitors of HSD17B4, hydroxysteroid (17-beta) dehydrogenase 4 | 3-hydroxyacyl-CoA dehydrogenase type-2 (Homo sapiens), Q99714 | recombinant HSD17B10, NADH fluorescence kinetic; many of its hits are not listed in these tables | Potency, µM (doses to about 57.1 µM), without a hit: top-dose activity change, negative = inhibition, usual class: inhibitors | hit rate 7.6% among 75,000; active means well fitted inhibition curve with a large enough effect; inconclusive means small, poorly fitted or top-dose-only effect; inactive means no such curve, though single readings can be large or run the other way;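 further: the protocol describes HADH2 (HSD17B10) and not the HSD17B4 of the title; nearly all actives have a fitted effect of over 70% in size; most hits overshoot -100% by far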
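20 nM HADH2, pH 9.0 Tris/Tween; cpd preinc 15 min RT; start w/ 1 mM NAD+ + 90 uM b-hydroxybutyryl-CoA; kinetic fluor ex360/em450 q30s x 4 min; delta last-first.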
* marks the source's active call; other numbers are inactive results; ? = inconclusive; [ ] = another dose, or the depositor's remark. On the % scale 0 is the no-effect control and ±100 the full control effect; potency means the concentration at half of the fitted maximal effect. An excerpt; the hit share may differ from the screen's.

Compound,HSD17B inh
CC(=O)OCC1OC(c2ccccc2)C(OC(C)=O)C(OC(C)=O)C1OC(C)=O (stereo not drawn),6%
O=C(CNC(=O)Cn1ccc2ccccc2c1=O)NCCCN1CCCCCC1,0%
COc1cc(S(=O)(=O)NCc2ccccc2)ccc1F,2%
Cc1c(N=C/C=C/c2ccccc2)cnn1C,-10%
COc1ccc(C(c2nnnn2C(C)(C)C)N2CCN(c3nc4ccccc4s3)CC2)cc1 (stereo not drawn),8%
COc1ccc(OC)c(NC(=O)CSc2nnnn2-c2ccccc2F)c1,3%
Cn1c(CCNC(=O)C(C)(C)C)nc2ccccc21,1%
Cc1cnc(CNc2cc(-c3cccnc3)ncn2)cn1,-9%
CC1(C(=O)NC2CCCC2)CCC(=O)N1Cc1cccs1 (stereo not drawn),11%
O=C(Nc1ccc(NC(=O)C2CC2)nc1)c1ccncc1,3%
COc1ccc(NC(=O)CSc2nnc(-c3ccccc3C)n2N)cc1,-3%
O=S(=O)(Nc1nc2ccccc2s1)c1ccc(Br)s1,-18%
CN(c1ccc(C(=O)NCCSCc2ccco2)cc1)S(C)(=O)=O,-20%
COC(=O)N1CCC2(CCCN(C(=O)Nc3cccc(C#N)c3)C2)CC1,3%
CC(=O)c1c(C)cc(C)c(CSc2nc(C)cc(=O)[nH]2)c1C,-7%
O[C@H](C[C@@H]1CCCCN1)c1ccc2c(c1)oc1ccccc12,0%[11.4 µM]
CN(C)c1cccc(-c2nnc(SCCCC#N)o2)c1,?
Cc1ccc(C2CC(C(F)(F)F)n3ncc(C(=O)NCc4ccco4)c3N2)cc1 (stereo not drawn),-22%
O=C(NCc1ccccn1)c1cc(-n2cnnc2)ccc1Cl,-2%
CCOC(=O)c1c(C(C)(C)C)oc2ccc(OCC#N)cc12,-19%
Cc1noc(C)c1C(=O)N1CCC[C@@]2(CCN(Cc3cc(C(F)(F)F)cc(C(F)(F)F)c3)C2)C1,-4%
Cc1ccccc1-n1c(Cn2c(=O)sc3ccccc32)nnc1SCC(=O)N1CCCC1,0%
CC(C)=NNc1ncnc2nc[nH]c12,1%[11.4 µM]
COc1c(F)c(F)c(C(=O)Nc2ccc(NC(=O)c3ccco3)cc2)c(F)c1F,-25%
C=CCOc1cccc(C2c3c(oc4ccc(F)cc4c3=O)C(=O)N2CCCN2CCOCC2)c1 (stereo not drawn),23%
Cc1cnc(CNc2cc(-c3cccc(NS(C)(=O)=O)c3)ncn2)cn1,-16%
CCC(C)(C)NC(=O)C(c1ccncc1)N(Cc1cccs1)C(=O)Cn1nnc2ccccc21 (stereo not drawn),-1%
CCOC(=O)Cc1cnc(NC(=O)c2ccccc2)s1,3%
Cc1cc(NC(=O)CCC(=O)N(c2ccccc2)C2(C(=O)NC3CCCCC3)CCCC2)no1,-8%
O=c1nc(-c2ccccc2)c2cc(Cl)ccc2[nH]1,32µM*

Single entries from the entries so far:
`Cn1c(CCNC(=O)C(C)(C)C)nc2ccccc21` – HSD17B inh = 1%
`O=S(=O)(Nc1nc2ccccc2s1)c1ccc(Br)s1` – HSD17B inh = -18%
`Cc1c(N=C/C=C/c2ccccc2)cnn1C` – HSD17B inh = -10%
`CCOC(=O)c1c(C(C)(C)C)oc2ccc(OCC#N)cc12` – HSD17B inh = -19%
`COc1ccc(C(c2nnnn2C(C)(C)C)N2CCN(c3nc4ccccc4s3)CC2)cc1` (stereo not drawn) – HSD17B inh = 8%

(more compounds)
Compound,HSD17B inh
CC(NC(=O)c1ccco1)C(c1cccs1)N1CCN(c2ccc(F)cc2)CC1 (stereo not drawn),?
O=C(C1CCCO1)N1CCN(S(=O)(=O)c2ccccc2)CC1 (stereo not drawn),7%
CSc1cccc(NC(=O)CN(C2CCCCC2)S(C)(=O)=O)c1,6%
COc1ccc(CCNc2nc(C)nc3c2oc2ccccc23)cc1OC,3%
C/C(=N\NC(N)=S)c1ccc[nH]1,7%[11.4 µM]
Cc1[nH]nc2c1C(c1ccc(OC(=O)c3ccco3)cc1)C(C#N)=C(N)O2 (stereo not drawn),-20%
CN1C=C(C(F)(F)F)C=C/C1=C(\C#N)c1nnc2n1CCCCC2,10%
COc1ccc(C(=O)O)cc1F,5%
Cc1nnc(NCCc2ccccc2)[nH]c1=O,6%
COC(=O)c1ccc(CN2C(=O)NC3(CCC(C)CC3)C2=O)o1 (stereo not drawn),1%
CCN=C(Nc1ccc2c(c1)OCO2)SC1CC(=O)N(c2ccccc2F)C1=O (stereo not drawn),6%
CCOC(=O)C1CCN(C(c2cccc(F)c2)c2sc3nc(C)nn3c2O)CC1 (stereo not drawn),80%[activator]
CC1=CCc2c(cc3oc(C)cc(=O)c3c2O)OC1,-28%
COC(=O)NC(c1ccc(F)cc1)C(C(C)=O)C(=O)OC (stereo not drawn),16%[11.4 µM]
CCOCCCNCC(=O)N1CCN(S(=O)(=O)c2ccc(C)cc2)CC1,30%
COc1ccc(NC(C)=O)cc1NC(=O)CSc1nnc(-c2cccnc2)n1C,-28%
COc1ccccc1CC1(C)NC(=O)N(CC(=O)Nc2cc(C)on2)C1=O (stereo not drawn),-8%
O=C(CSc1cccc(C(F)(F)F)c1)N1CCN(S(=O)(=O)c2ccccc2)CC1,13%
CCOc1ccc(Nc2nc(C)cc(C)c2C#N)cc1,?
O=C(O)/C=C1\CCCc2ccccc2[C@H]1O,8%
COc1ccc(Cl)cc1N(CC(=O)Nc1ccc2c(c1)OCO2)S(C)(=O)=O,-2%
Cc1ccccc1NC(=O)N1C2CCCC1CC(NC(=O)C1CC1)C2 (stereo not drawn),21%
O=S(=O)(Nc1cccc2cccnc12)c1ccc(S(=O)(=O)N2CCCC2)cc1,-5%
COc1ccc(C)cc1NC(=O)C1CC(=O)OC12CCCCC2 (stereo not drawn),2%
CC(CCC(=O)O)(c1cc(Br)c(O)c(Br)c1)c1cc(Br)c(O)c(Br)c1,?
CCOc1ccc(NS(=O)(=O)c2ccc(OCC(=O)N3CCCC3)cc2)cc1,5%
O=C1CN(C(=O)CCCc2c[nH]c3ccccc23)c2ccccc2N1,-9%
O=C(c1cc(-n2cnnc2)ccc1Cl)N1CCN(c2nc(-c3ccccc3)cs2)CC1,-15%
COC(=O)CN(n1cnnc1)S(=O)(=O)c1ccc(C)cc1,1%
CC1=C(C)CC(C(=O)N2CCN(Cc3ccccc3)CC2)C(C(=O)O)C1 (stereo not drawn),2%

4 entries from above, field by field:
CSc1cccc(NC(=O)CN(C2CCCCC2)S(C)(=O)=O)c1
  HSD17B inh: 6%
COc1ccc(C)cc1NC(=O)C1CC(=O)OC12CCCCC2 (stereo not drawn)
  HSD17B inh: 2%
O=C(C1CCCO1)N1CCN(S(=O)(=O)c2ccccc2)CC1 (stereo not drawn)
  HSD17B inh: 7%
CCOc1ccc(Nc2nc(C)cc(C)c2C#N)cc1
  HSD17B inh: ?

Later entries.
Compound,HSD17B inh
COc1ccc(C2NC(=O)c3ccccc3O2)c(OC)c1OC (stereo not drawn),169%[activator]
O=C(O)C[C@H](Sc1ccccc1)c1ccccc1,-6%[11.4 µM]
Cc1nn(C)c(C)c1S(=O)(=O)N1CCc2ccccc21,-3%
CC1CCC(NC(=O)C2CCN(c3cnccn3)CC2)CC1 (stereo not drawn),-8%
Cn1nc(CC(=O)NC2CCCCCC2)c2ccccc2c1=O,-4%
COCc1cc(C)nc(Nc2ccc(C)cc2C)c1C#N,?
C=CCn1cnc2c(c1=O)c1nc3ccccc3nc1n2Cc1ccccc1,?
O=C(CCCN1CCOCC1)c1ccc2c(c1)OCCO2,-11%
Cc1ccc(C)c(C(=O)CC2(O)C(=O)N(C)c3ccccc32)c1 (stereo not drawn),-2%
CCOc1nc(N(C)C)nc(-n2nnc(C(C)=O)c2C)n1,15%
Cn1c(COc2ccccc2)nnc1SCC(=O)NCc1ccccc1,-1%
N#C/C(C(=O)c1ccccc1)=C1/CCCN1,1%
CCCc1nc2oc3c(NCCN(C)C)ncnc3c2c2c1CCCC2,?
Cc1cc(C)n(-c2nc3ccccc3[nH]c2=O)n1,25µM*
Cc1ccc(Cn2ccc(NC(=O)c3cc(-c4ccc(Cl)cc4)on3)n2)cc1,-1%
CCOC(=O)CSC1=NC(=O)CS1,-3%
COC(=O)CCCC(=O)Nc1ccc(Cl)c(Cl)c1,11%
CCN1C(=O)C2(C(C#N)=C(N)Oc3n[nH]c(C(C)C)c32)c2ccccc21 (stereo not drawn),3%
O=c1c2ccccc2nc2n1CCc1c-2[nH]c2ccccc12,25µM*
c1cncc(-c2csc(NCc3ccco3)n2)c1,-3%
Cc1noc(C)c1S(=O)(=O)N1CCCC(C(=O)Nc2nccs2)C1 (stereo not drawn),-7%
COC(=O)C1(c2ccccc2)NC(c2cccs2)C2C(=O)N(C)C(=O)C21 (stereo not drawn),-14%
CCC(=O)Nc1ccc2c(c1)nc(CCN1CCN(C)CC1)n2C,6%
CCn1c(=O)n(CC(=O)NC2CCCC(C)C2C)c(=O)c2ccccc21 (stereo not drawn),?
O=C(O)[C@H](CCc1ccccn1)c1ccccc1,2%[11.4 µM]
O=C(CN1C(=O)NC2(CCCC2)C1=O)N1CCN(C(=O)c2ccco2)CC1,13%
O=C(NCc1ccco1)C(c1ccco1)N(CCc1ccccc1)C(=O)Cn1nnc2ccccc21 (stereo not drawn),-11%
CCOc1ccc(NC(=O)Cn2nnc(-c3ccccc3NC(=O)CC)n2)cc1,21%
COc1ccc(Cl)cc1-c1n[nH]c(=S)o1,?
Cc1c(-c2ccccc2)oc2nc3c(c(=O)n(C)c(=O)n3C)n12,0%
O=C(c1ccc(Br)o1)N1CCN(c2ccc3nnc(-c4ccccc4)n3n2)CC1,?
Cc1nnc(NC(=O)CCCCCN2C(=O)C3C4C=CC(C4)C3C2=O)s1 (stereo not drawn),6%
CSc1nc(C)cc(-n2ccc(=O)[nH]c2=O)n1,-33%
Cc1cc2oc(=O)cc(CN3CCN(Cc4ccc5c(c4)OCO5)CC3)c2cc1C,10%
O=S(=O)(c1ccccc1)N1CCC2(CCCN(Cc3cc(C(F)(F)F)cc(C(F)(F)F)c3)C2)CC1,-6%
COc1ccc(Cc2nn3c(-c4ccccc4OC)nnc3s2)cc1,-26%
CN[C@]1(C)[C@H]2CC[C@@H](C2)C1(C)C,1%[25.6 µM]
Cc1ccc(Cc2nc(-c3cccc(C)c3)no2)cc1,4%
Cc1onc(-c2ccccc2)c1C(=O)Nc1sc2c(c1C#N)CCC(C)C2 (stereo not drawn),-10%
COc1ccc(-c2nnc(Nc3nc4c(OC)cccc4s3)o2)cc1,32µM*
COC(=O)c1ccc(Cl)c(NC(=O)CN(c2ccc3c(c2)OCO3)S(C)(=O)=O)c1,9%
O=C(N/N=C\c1ccc2c(c1)CCC2)c1ccccc1O,1%[11.4 µM]
C=CC(=O)OCCOCCOC(=O)C=C,-1%
CS(=O)(=O)N(CC(=O)Nc1ccc2c(c1)OCO2)c1ccccc1,5%
O=C(O)c1ccc(COc2c(F)c(F)cc(F)c2F)o1,1%
CCCCOC(=O)C1CCCC(C(=O)OCCCC)N1 (stereo not drawn),5%
CCOc1ccc(Cc2nc(C)c(CC(=O)N3CCOCC3)c(=O)[nH]2)cc1,-3%
O=C(c1cccs1)N1CCc2ccccc21,-4%
Cc1nc2ccccc2c2oc(C(=O)NCC3CCCO3)cc12 (stereo not drawn),32µM*
CCOc1ccc(C2c3c(oc4cc(C)c(C)cc4c3=O)C(=O)N2CCCN2CCOCC2)cc1 (stereo not drawn),3%
O=C(CSc1nc(-c2ccccc2)cs1)N1CCN(C(=O)c2ccco2)CC1,17%
CN1CCC(N(C)C(=O)c2ccccc2Nc2ccc(SC(F)F)cc2)CC1,-10%
O=C(COC(=O)C12CC3CC(CC(C3)C1)C2)NCc1ccco1,-14%
CCCOc1ccc(N2C(=O)CC(N3CCC(O)(c4cccc(C(F)(F)F)c4)CC3)C2=O)cc1 (stereo not drawn),8%
COc1cc2nc(C3CCC3)n(NC(=O)C3CCC(OC)CC3)c(=O)c2cc1OC (stereo not drawn),-9%
CCOC(=O)C1CCN(CC(=O)c2c(C)[nH]c3ccccc23)CC1,9%
C=CCn1c(=O)c2c(C)c(C)sc2n2c(Nc3ccccc3)nnc12,7%
OC(CN1CCOCC1)Cn1c(-c2cccc(Cl)c2)nc2ccccc21 (stereo not drawn),13%
Cc1noc(C)c1COC(=O)Cc1ccc(Cl)cc1,-4%
CCc1nc2oc3ccccc3c(=O)c2c(=O)n1CCOC,8%
CCN1CCN(CNC(=O)c2cnccn2)CC1,5%
O=C(Oc1nsnc1N1CCOCC1)N(c1ccccc1)c1ccccc1,-7%

Some of the entries above, reformatted:
COC(=O)c1ccc(Cl)c(NC(=O)CN(c2ccc3c(c2)OCO3)S(C)(=O)=O)c1
- HSD17B inh: 9%

OC(CN1CCOCC1)Cn1c(-c2cccc(Cl)c2)nc2ccccc21 (stereo not drawn)
- HSD17B inh: 13%
